Screening data as filed in PubChem.
MT1-MMP act inh: blocks activation of human MT1-MMP; P50281; HT1080 RFP-PRO-GFP cells, GFP/RFP ratio fluorescence, overnight; percent of plate control window, DMSO zero; GFP/RFP ratio change, % at 20 µM; 0.061% of 360,000 active;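 active = GFP/RFP ratio change of at least 30% with cell ATP level not reduced by more than half and red fluorescence within 50% of control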; also: strong numbers were not always called active
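system = RFP-PRO-GFP reporter HT1080 cells | dosing = 20 µM single dose, 1% DMSO | timing = overnight cell settling, then overnight compound exposure, 37 °C, 5% CO2 | read-out basis = GFP/RFP fluorescence ratio | controls = DMSO and RFP-L50D-GFP cell wells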
Env fusion inh: HIV envelope-mediated fusion inhibition | HeLa-JRFL Env/CEM21 cell fusion, luciferase | inhibition, % at 12.3 µM | 1.1% of 360,000 active | AID 651610;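 active = mean replicate inhibition score of at least 50 and every replicate individually at or above 50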;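 also: 0% = plate neutral controls and 100% = maraviroc near 300 nM; one replicate is shown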
MT1-MMP act inh RFP: also measured in MT1-MMP act inh; calls as there; RFP signal change, %; measured here: RFP expression control read;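 0 = vehicle wells; hits needed this value within 50% of zero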
The depositor's hits bear a star; [ ] = remark or other dose. These rows are one share of the data; the hit share may differ from the screen's.

How did CCC(c1nnnn1-c1ccc2c(c1)OCCO2)N1CCN(CCN2CCOCC2)CC1 (configuration not stated) do in these assays?
MT1-MMP act inh: -1; Env fusion inh: -1; MT1-MMP act inh RFP: 4

Results for CCOc1ccccc1C(=O)NCCN1CCC(n2c(=O)[nH]c3ccccc32)CC1 ?
MT1-MMP act inh: 11; Env fusion inh: -1; MT1-MMP act inh RFP: 0

What do the screens show for `O=C(NCc1ccccc1)C1C(c2ccc3c(c2)OCO3)=Nc2ccccc2N1C(=O)c1ccccc1` (configuration not stated)?
MT1-MMP act inh: -8; Env fusion inh: -14; MT1-MMP act inh RFP: -4

Results for COC(=O)C[C@@H]1CC[C@H](NS(=O)(=O)c2ccccc2F)[C@@H](CO)O1 ?
MT1-MMP act inh: 2; Env fusion inh: -14[16.7 µM]; MT1-MMP act inh RFP: 4

What do the screens show for `CC(=O)OC[C@@H]1CN(Cc2cccc(C(F)(F)F)c2)C[C@H](n2cnc3c(NCc4ccco4)ncnc32)O1`?
MT1-MMP act inh: 0; Env fusion inh: -8; MT1-MMP act inh RFP: 1

How did COc1cccc(-c2oc3c(c2C#CCCO)C(O)CCC3)c1 (configuration not stated) do in these assays?
MT1-MMP act inh: 3; Env fusion inh: 1; MT1-MMP act inh RFP: 4

What do the screens show for `COCOCCn1cc(CN2CCS(=O)(=O)N(Cc3ccc(-c4ccncc4)cc3)C(CC(C)C)C2=O)nn1` (configuration not stated)?
MT1-MMP act inh: 0; Env fusion inh: -84; MT1-MMP act inh RFP: 1

Results for CCOC(=O)Cn1c(C(F)(F)F)nc2nc(Cl)c(Cl)nc21 ?
MT1-MMP act inh: -4; Env fusion inh: -116; MT1-MMP act inh RFP: -1

Results for O=C(NCc1ccccc1)C(c1ccc(-c2ccccc2)cc1)n1c(=O)c(-c2cc3ccccc3[nH]2)nc2ccccc21 (configuration not stated) ?
MT1-MMP act inh: -4; Env fusion inh: -2; MT1-MMP act inh RFP: -6

How did COc1ccc(Cl)cc1CC=NNC(=O)c1cccc(C)c1O do in these assays?
MT1-MMP act inh: 2; Env fusion inh: 2; MT1-MMP act inh RFP: 2

Results for COc1ccc(N2C(=O)c3ccccc3NC(=O)C2C(=O)NCc2ccco2)cc1 (configuration not stated) ?
MT1-MMP act inh: -2; Env fusion inh: -14; MT1-MMP act inh RFP: 3

How did CCOC(=O)[C@]12CCCC=C1N(Cc1cccc3ccccc13)C(=O)[C@H](CC(=O)N1CCCCC1)C2 do in these assays?
MT1-MMP act inh: -17; Env fusion inh: -12; MT1-MMP act inh RFP: -20

How did CCCCn1nnnc1C1(C)CCC(=O)N1Cc1cc(OC)ccc1OC (configuration not stated) do in these assays?
MT1-MMP act inh: 1; Env fusion inh: -2; MT1-MMP act inh RFP: 3

Results for CN(Cc1ccccc1)C(c1ccnc2ccccc12)c1nnnn1-c1ccc2c(c1)OCCO2 (configuration not stated) ?
MT1-MMP act inh: -2; Env fusion inh: 12; MT1-MMP act inh RFP: -3

How did Nc1cc2c(cc1[N+](=O)[O-])-c1ccccc1C2=NO do in these assays?
MT1-MMP act inh: -16; Env fusion inh: 21; MT1-MMP act inh RFP: -10

What do the screens show for `O=C(NC1CCCC1)C(c1ccccc1)n1c(-c2cccc3ccccc23)nc2ccccc21` (configuration not stated)?
MT1-MMP act inh: -9; Env fusion inh: 5; MT1-MMP act inh RFP: -5

Results for CC[C@@H](C)[C@H](C(CC(=O)N1CCCC1[C@@H](OC)[C@H](C)C(=O)N[C@H](Cc1ccccc1)c1nccs1)OC)N(C)C(=O)[C@H](NC(=O)[C@@H](C(C)C)N(C)C)C(C)C (some centres not stated) ?
MT1-MMP act inh: 22; Env fusion inh: -93; MT1-MMP act inh RFP: 4

What do the screens show for `Cc1ccc(S(=O)(=O)N2[C@H](CC(=O)c3ccccc3)OC[C@@H]2C)cc1`?
MT1-MMP act inh: 3; Env fusion inh: -1; MT1-MMP act inh RFP: -5

Results for CCOC(=O)C1=NOC2(C1)C(=O)Nc1ccc(OC)cc12 (configuration not stated) ?
MT1-MMP act inh: 1; Env fusion inh: 0; MT1-MMP act inh RFP: 7

What do the screens show for `COc1cccc2c1C(=O)c1c(O)c3c(c(O)c1C2=O)CC(O)(C(C)=O)CC3OC1CC(N(C)C)C(O)C(C)O1` (configuration not stated)?
MT1-MMP act inh: -14; Env fusion inh: 58*; MT1-MMP act inh RFP: 48

How did COC(=O)C1=CN(c2cccc(OCc3ccccc3)c2)C(N)=C(C#N)C1c1cccc(OC)c1OC (configuration not stated) do in these assays?
MT1-MMP act inh: -5; Env fusion inh: 1; MT1-MMP act inh RFP: -7

What do the screens show for `NS(=O)(=O)c1cccc(NC(=O)CN2CCN(S(=O)(=O)c3ccc4c(c3)OCCO4)CC2)c1`?
MT1-MMP act inh: 2; Env fusion inh: -12; MT1-MMP act inh RFP: 1

How did Oc1ccc(F)c(CN2CCN(c3ncc(Cc4ccccc4)cn3)CC2)c1 do in these assays?
MT1-MMP act inh: 5; Env fusion inh: 19; MT1-MMP act inh RFP: -5

What do the screens show for `CCCCn1nnnc1C1(C)CCC(=O)N1Cc1cccs1` (configuration not stated)?
MT1-MMP act inh: 4; Env fusion inh: -16; MT1-MMP act inh RFP: 7

How did O=C(NC1CCCC1)C1c2ccccc2OCC(=O)N1Cc1ccc2c(c1)OCO2 (configuration not stated) do in these assays?
MT1-MMP act inh: 1; Env fusion inh: -18; MT1-MMP act inh RFP: 1

What do the screens show for `COC(=O)[C@@]12C[C@@H](CC(=O)N3CCOCC3)C(=O)N(Cc3ccccc3)C1=CCC(C)(C)C2`?
MT1-MMP act inh: -2; Env fusion inh: -2; MT1-MMP act inh RFP: -1

What do the screens show for `O=C(Nc1c(-c2ccccc2)[nH][nH]c1=O)c1ccc2ccccc2c1`?
MT1-MMP act inh: 0; Env fusion inh: -3; MT1-MMP act inh RFP: 4

What do the screens show for `O=S1(=O)CC(N2CCSCC2)CN1Cc1cn(Cc2ccc(F)cc2)nn1` (configuration not stated)?
MT1-MMP act inh: 3; Env fusion inh: 15; MT1-MMP act inh RFP: 4

How did CCCCNC(=O)c1nc(C2CCNCC2)oc1-c1ccccc1 do in these assays?
MT1-MMP act inh: 0; Env fusion inh: 5; MT1-MMP act inh RFP: 3

How did CC1=C(C(=O)N2CCCCCC2)CC(CC(=O)NC2CCCC2)C(=O)N1Cc1ccc(C(C)(C)C)cc1 (configuration not stated) do in these assays?
MT1-MMP act inh: 4; Env fusion inh: -2; MT1-MMP act inh RFP: -3

As a short view, some entries already given.
What do the screens show for `O=C(NC1CCCC1)C(c1ccccc1)n1c(-c2cccc3ccccc23)nc2ccccc21` (configuration not stated)?
MT1-MMP act inh: -9; Env fusion inh: 5; MT1-MMP act inh RFP: -5

Results for CC[C@@H](C)[C@H](C(CC(=O)N1CCCC1[C@@H](OC)[C@H](C)C(=O)N[C@H](Cc1ccccc1)c1nccs1)OC)N(C)C(=O)[C@H](NC(=O)[C@@H](C(C)C)N(C)C)C(C)C (some centres not stated) ?
MT1-MMP act inh: 22; Env fusion inh: -93; MT1-MMP act inh RFP: 4

What do the screens show for `Cc1ccc(S(=O)(=O)N2[C@H](CC(=O)c3ccccc3)OC[C@@H]2C)cc1`?
MT1-MMP act inh: 3; Env fusion inh: -1; MT1-MMP act inh RFP: -5

Results for CCOC(=O)C1=NOC2(C1)C(=O)Nc1ccc(OC)cc12 (configuration not stated) ?
MT1-MMP act inh: 1; Env fusion inh: 0; MT1-MMP act inh RFP: 7

What do the screens show for `COc1cccc2c1C(=O)c1c(O)c3c(c(O)c1C2=O)CC(O)(C(C)=O)CC3OC1CC(N(C)C)C(O)C(C)O1` (configuration not stated)?
MT1-MMP act inh: -14; Env fusion inh: 58*; MT1-MMP act inh RFP: 48

How did COC(=O)C1=CN(c2cccc(OCc3ccccc3)c2)C(N)=C(C#N)C1c1cccc(OC)c1OC (configuration not stated) do in these assays?
MT1-MMP act inh: -5; Env fusion inh: 1; MT1-MMP act inh RFP: -7

What do the screens show for `NS(=O)(=O)c1cccc(NC(=O)CN2CCN(S(=O)(=O)c3ccc4c(c3)OCCO4)CC2)c1`?
MT1-MMP act inh: 2; Env fusion inh: -12; MT1-MMP act inh RFP: 1

How did Oc1ccc(F)c(CN2CCN(c3ncc(Cc4ccccc4)cn3)CC2)c1 do in these assays?
MT1-MMP act inh: 5; Env fusion inh: 19; MT1-MMP act inh RFP: -5

What do the screens show for `CCCCn1nnnc1C1(C)CCC(=O)N1Cc1cccs1` (configuration not stated)?
MT1-MMP act inh: 4; Env fusion inh: -16; MT1-MMP act inh RFP: 7

How did O=C(NC1CCCC1)C1c2ccccc2OCC(=O)N1Cc1ccc2c(c1)OCO2 (configuration not stated) do in these assays?
MT1-MMP act inh: 1; Env fusion inh: -18; MT1-MMP act inh RFP: 1

More records follow:
How did NC(=O)c1c(N)[nH]c(C(=O)c2ccccc2)c1-c1ccncc1 do in these assays?
MT1-MMP act inh: 2; Env fusion inh: -7; MT1-MMP act inh RFP: 6

How did Cc1ccc(C=C(C#N)C(=O)c2ccccc2)cc1 do in these assays?
MT1-MMP act inh: -1; Env fusion inh: -4; MT1-MMP act inh RFP: 4

Results for CC(C)C[C@H]1CN(CCCC[C@H]2CNC(=O)C(=O)N2Cc2ccccc2)C(=O)C(=O)N1CC1CCCCC1 ?
MT1-MMP act inh: 2; Env fusion inh: -17; MT1-MMP act inh RFP: 0

What do the screens show for `Nc1[nH]c(C(=O)c2ccccc2)c(-c2ccccc2Br)c1C(=O)c1ccccc1`?
MT1-MMP act inh: 0; Env fusion inh: 8; MT1-MMP act inh RFP: -8

How did O=C1c2ccccc2C(c2nnnn2-c2ccc3c(c2)OCCO3)N1CCc1ccc(O)cc1 (configuration not stated) do in these assays?
MT1-MMP act inh: -1; Env fusion inh: 12; MT1-MMP act inh RFP: 3

Results for C#CCNC(=O)C[C@@H]1C[C@@]2(C(=O)OC)CC(C)(C)CC=C2N(Cc2ccccc2)C1=O ?
MT1-MMP act inh: 2; Env fusion inh: 2; MT1-MMP act inh RFP: 1

How did O=C(C=Cc1ccccc1Cl)c1ccccc1 do in these assays?
MT1-MMP act inh: -1; Env fusion inh: -38; MT1-MMP act inh RFP: 3

How did CC1(Br)C(Sc2ccccc2[N+](=O)[O-])=Nc2ccccc21 (configuration not stated) do in these assays?
MT1-MMP act inh: 11; Env fusion inh: 24; MT1-MMP act inh RFP: -5

What do the screens show for `Cc1cc2nc(-c3nnnn3Cc3ccccc3)c(=O)[nH]c2cc1C`?
MT1-MMP act inh: 6; Env fusion inh: -1; MT1-MMP act inh RFP: -1

What do the screens show for `CCCCCCn1cc(CN2CC(N3CCN(Cc4cccc(C)c4)CC3)CS2(=O)=O)nn1` (configuration not stated)?
MT1-MMP act inh: 3; Env fusion inh: -4; MT1-MMP act inh RFP: -11

Results for CC(C)CC1OC(C(C)C)Cc2[nH]c(=S)[nH]c(=O)c21 (configuration not stated) ?
MT1-MMP act inh: -3; Env fusion inh: -46; MT1-MMP act inh RFP: -6

How did COc1cc(C2C3=C(COC3=O)Oc3cc4c(cc32)OCO4)cc(OC)c1O (configuration not stated) do in these assays?
MT1-MMP act inh: 31; Env fusion inh: 31; MT1-MMP act inh RFP: 7

How did COC(=O)C[C@H]1C=C[C@@H](NC(=O)Cc2cccnc2)[C@@H](CO)O1 do in these assays?
MT1-MMP act inh: 3; Env fusion inh: 7; MT1-MMP act inh RFP: 7

How did CCCCn1nnnc1C(c1cc2ccccc2o1)N1CCCCC1 (configuration not stated) do in these assays?
MT1-MMP act inh: 3; Env fusion inh: 31; MT1-MMP act inh RFP: -3

What do the screens show for `CCOC1=C2CN(S(=O)(=O)c3ccc(C)cc3)C(c3cccc(Cl)c3)CC2NC(c2ccccc2)C1` (configuration not stated)?
MT1-MMP act inh: -2; Env fusion inh: 6; MT1-MMP act inh RFP: -12

What do the screens show for `O=C(C[C@@H]1C=C[C@@H](NC(=O)Nc2cccc(F)c2)[C@@H](CO)O1)NCC1CCCCC1`?
MT1-MMP act inh: 1; Env fusion inh: -20[16.7 µM]; MT1-MMP act inh RFP: 2

Results for CCOC(=O)[C@]12CCCC=C1N(CCC1=CCCCC1)C(=O)[C@H](CC(=O)N1CCSCC1)C2 ?
MT1-MMP act inh: 4; Env fusion inh: 6; MT1-MMP act inh RFP: -1

What do the screens show for `COC(=O)[C@]12CCCCC=C1N(Cc1ccccc1)C(=O)[C@H](CC(=O)NCc1cccc(C(F)(F)F)c1)C2`?
MT1-MMP act inh: 3; Env fusion inh: 1; MT1-MMP act inh RFP: 0

Results for CCOC(=O)N1C(=O)NC(=O)C1c1ccccc1 (configuration not stated) ?
MT1-MMP act inh: 2; Env fusion inh: -16; MT1-MMP act inh RFP: 3

How did CCC(C(=O)Nc1c(C)cccc1C)n1c(-c2cc(C)cs2)nc2ccccc21 (configuration not stated) do in these assays?
MT1-MMP act inh: 7; Env fusion inh: -36; MT1-MMP act inh RFP: 4

What do the screens show for `COc1ncccc1C(=O)Nc1c(-c2ccccc2)[nH][nH]c1=O`?
MT1-MMP act inh: -1; Env fusion inh: -3; MT1-MMP act inh RFP: 5

Results for COc1ccccc1NS(=O)(=O)c1cc(NC(=O)COc2ccccc2F)ccc1N1CCOCC1 ?
MT1-MMP act inh: 2; Env fusion inh: -5; MT1-MMP act inh RFP: -7

What do the screens show for `O=NN(C(=O)NC1CCC(C(=O)O)CC1)C1CCC(C(=O)O)CC1` (configuration not stated)?
MT1-MMP act inh: 3; Env fusion inh: -28; MT1-MMP act inh RFP: 8

What do the screens show for `CC1(N=Cc2cc(Cl)ccc2O)COP(=O)(Nc2ccccc2)OC1` (configuration not stated)?
MT1-MMP act inh: 13; Env fusion inh: 0; MT1-MMP act inh RFP: -1
